Screening results as filed in PubChem BioAssay.
ugtP null kill – compounds lethal to S. aureus RN4220 ugtP deletion mutant; growth inhibition, % (no concentration beside the values); actives 0.54% (n = 330,000); OD600 growth, 16 h; some inactives read as strong as hits;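 active = z-score under -3 and OD600 up to 0.15 on both plates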;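 note: plate controls were untreated wells for no effect and antibiotic for full effect; wells of about 80 µL received 100 nL stock; the first replicate is given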
RN4220 kill – S. aureus RN4220 growth inhibition. OD600, 16 h. inhibition, % (test concentration not listed). actives 0.33% (n = 330,000). AID 1259311;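 active = z-score of -3 or lower and OD600 up to 0.18 on both plates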;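 note: plate controls were untreated cells for no effect and reference antibiotic for full effect; stock transfer was 100 nL into about 80 µL; one replicate is shown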
Mtb hypoxia inh – inhibitors of hypoxia-regulated fluorescent reporter in Mycobacterium tuberculosis. M. tuberculosis hypoxia-regulated fluorescent reporter, fluorescence. fluorescence inhibition, % (concentration not given with the values). AID 1159583. actives 0.1% (n = 300,000);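 active = 35 to 45% if threefold the growth effect, above 45% if 1.5-fold the growth effect; inactive = the rest, general growth blockers included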;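 note: wells of about 50 µL received 100 nL stock; 0% = vehicle wells and 100% = reference inhibitor wells; whole bacteria with a GFP reporter of the hypoxia response; strong numbers were not always called active; many hits fall short of the cut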
PrP UTR inh – suppresses PrP 5' UTR mRNA reporter expression | inhibition, % (no concentration beside the values) | cell-based PrP 5' UTR mRNA reporter, plate reader | actives 0.35% (n = 340,000);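 active = every replicate at 50% or more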;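 note: 0 = median of the neutral control wells; tested in H4 reporter cells; numbers are from one replicate; inactives centre near -14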
Bead autofluor – compound fluorescence in toxin protease inhibitor counterscreen. compound autofluorescence counterscreen, microsphere flow cytometry; stronger effect = higher value. fluorescence intensity (test concentration not listed). actives 3.1% (n = 360,000). AID 624483;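 active = at least 3 SD above the mean of all compounds, about 16000 in these data; inconclusive = too few beads counted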;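 note: 100 nL of 1 mM stock went into each well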
BJeLR lethal – BJeLR cell viability loss. AID 1554. inhibition, % (no concentration beside the values). actives 0.17% (n = 300,000). BJeLR (HRASV12) viability, CellTiter-Glo ATP luminescence, 48 h; reference of the scale not given here;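 active = replicate mean above 50%; inconclusive = above 50% but judged a plate artefact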;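 note: 50 nL library stock added to about 25 µL; numbers are from one replicate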
Mtb hypoxia inh growth – further read-out of Mtb hypoxia inh, marked with its call; growth inhibition, %; measured here: M. tuberculosis growth (absorbance);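 0% = vehicle and 100% = reference antibiotic; read after six days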
* hit, by the source's call; u = inconclusive; x = not tested or not shown.

structure	ugtP null kill	RN4220 kill	Mtb hypoxia inh	Mtb hypoxia inh growth	PrP UTR inh	Bead autofluor	BJeLR lethal
CN1C2CCC1CC(OC(=O)c1ccc([N+](=O)[O-])cc1)C2 (stereo unspecified)	11	3.4	-5	5	0	2033	-4
N#CC1(Nc2ccc(C(=O)O)cc2)CCCC1	-1	2.1	7	8	-3	3675	x
COc1cc(Cl)ccc1OCc1cc(C(=O)NCC(C)(C)N2CCOCC2)no1	7	4.4	11	9	-1	4296	-1
Cc1ccc(/C=N/NC(=O)c2nnn(-c3nonc3N)c2CSc2ccc(Cl)cc2)cc1	x	x	x	x	-3	3238	-4
COc1ccccc1OC(=O)CCc1nc2ccccc2s1	19	-0.5	1	9	-11	4325	4
CSc1nnc(C(C)(C)C)c(=O)n1/N=C/c1c(O)ccc2ccccc12	x	x	x	x	-1	4663	-6
CCCCn1c(=O)c(C(=O)NCc2ccncc2)c(O)c2ccccc21	-5	-5.9	2	7	-6	2805	6
COc1cc(OC)c(N(C)S(=O)(=O)c2cccc(C(=O)NC(C)C3CC4CCC3C4)c2)cc1Cl (stereo unspecified)	9	-1.0	9	-2	-15	4900	14
O=C(CN1C(=O)CCS(=O)(=O)c2ccccc21)Nc1ccc(F)cc1	2	1.9	-6	-1	-19	4729	7
Nc1nc(CCOc2ccc(F)cc2)cs1	23	11	-3	3	-69	3250	6
COc1ccc(Cl)cc1C(=O)NNC(=O)COC(=O)CC(NC(C)=O)c1ccccc1 (stereo unspecified)	3	0.7	1	-7	-12	x	-3
CCCCn1c(N)c(-c2nc3ccccc3o2)c2c([N+](=O)[O-])nn(CC)c(=O)c21	0	2.7	x	x	-4	2435	-20
COc1ccc(S(=O)(=O)Nc2cc(C(C)C)c(O)cc2C)cc1	6	9.6	4	4	-23	3816	-3
Cc1ccnc(NC(=O)CS(=O)(=O)c2ccccc2)c1	6	2.7	-2	-4	-18	3540	1
O=C(COC(=O)CNC(=O)C1CCCCC1)Nc1ccccc1	-6	-1.5	-5	0	x	3024	x
CCN(CC(=O)Nc1ccc(NC(C)=O)cc1)C(=O)CSCC(=O)Nc1ccc(C)cc1	-4	-1.3	-6	1	-13	10095	-2
COc1ccc(C(CNC(=O)c2ccc(S(=O)(=O)Nc3ccccc3F)cc2)N(C)C)cc1 (stereo unspecified)	-2	-0.2	4	-9	-19	5429	3
O=C(NC(=O)c1ccccc1)Nc1ccccc1	-4	0.4	15	3	21	2887	3
Cn1c(=O)oc2cc(S(=O)(=O)Nc3ccc(F)cc3)ccc21	12	2.3	1	0	-45	3699	4
Fc1ccc(-n2c(Cn3nnc4ccccc43)n[nH]c2=S)cc1	0	-0.2	-2	9	-81	3393	5
CCOc1ccc(-c2n[nH]c(=S)n2Cc2ccccc2)cc1	0	2.9	4	-2	-16	3969	-6
CSc1ccc(CNCCCN(C)C)cc1	-1	6.0	7	2	-3	10903	2
CCOC(=O)c1cc2c(=O)n3ccccc3nc2n(CCCOC)c1=NC(C)=O	-6	0.7	-1	3	-8	9770	x
Cc1ccccc1SCC(=O)OCC(=O)N(C)c1c(N)n(Cc2ccccc2)c(=O)[nH]c1=O	-1	1.1	-19	-5	-2	4493	-4
CC1CCC(NC(=S)NCCN(C)C)CC1 (stereo unspecified)	-6	-5.2	2	4	-28	4421	-15
COc1ccc(C(=O)NC(C)c2nnc(SCC(=O)NC3CCCCC3)n2C)cc1 (stereo unspecified)	10	-1.7	3	3	-14	3099	-2
Cc1ccc(CNC(=O)CS(=O)(=O)CC(=O)O)cc1	1	-2.6	x	x	-13	4987	-2
CCc1cccc2c(C(=O)COC(=O)c3nn(C)c(=O)c4ccccc34)c[nH]c12	14	0.0	x	x	6	4907	-5
COc1ccc(/C=C/C(=O)OCC(=O)NC2CCCC(C)C2C)c(OC)c1 (stereo unspecified)	85*	0.8	24	4	-2	2997	x
CCOc1ccc(NC(=O)CN(C)C(=O)c2ccc(COc3ccccc3)o2)cc1OCC	-4	-3.3	-9	1	-7	6636	-8
COc1ccc(NC(=O)CC(C)=NNC(=O)c2cccs2)c([N+](=O)[O-])c1	-5	-2.2	-1	-5	x	x	x
O=C(O)CNC(=O)c1ccc(NC(=O)/C(=C/c2cccc([N+](=O)[O-])c2)NC(=O)c2ccco2)cc1	4	-1.3	10	-23	-16	5154	-11
Cc1cc(NC(=O)CCC(=O)N(Cc2ccccc2)C(C(=O)NC2CCCC2)c2ccco2)no1 (stereo unspecified)	-1	4.6	19	5	-9	5756	-4
Cc1cc(C(=O)NC2CCCN(Cc3ccc(Cl)cc3)C2)no1 (stereo unspecified)	3	2.5	8	7	-12	5306	0
O=C1CC(c2ccc3c(c2)OCO3)c2cc3c(cc2N1)OCCO3 (stereo unspecified)	-4	1.0	x	x	-33	2290	-1
Cc1ccc(/C=C2/Sc3ccc(C(=O)NCCN4CCOCC4)cc3NC2=O)cc1	-13	4.1	3	11	3	5898	-10
CCOc1ccccc1NS(=O)(=O)c1ccc2c(c1)N(C)CCO2	11	9.3	1	-4	1	4601	0
c1ccc(COc2cccc(CNCc3cccs3)c2)cc1	4	8.0	-6	-1	-38	2487	-1
CC(=O)C[C@H](O)CC(=O)[C@@H]1OC(=O)[C@H](C)C/C=C\Cc2ccccc21	15	4.8	-2	3	-8	4082	x
CCN(CC)c1nc(=S)nc(NC(C)(C)C)[nH]1	30	-2.6	-3	-1	-19	8113	-1
O=C(NN=Cc1ccc(C(F)(F)F)cc1)c1ccncc1	6	-1.3	21	4	x	x	x
Cc1nn(CC(=O)N2CCOCC2)c(=O)c2ccccc12	-3	7.1	11	13	-13	9266	-6
O=C(c1ccc(-n2cccn2)cc1)N1CCc2c([nH]c3ccccc23)C1c1ccccn1 (stereo unspecified)	-8	4.8	-6	2	-3	3202	-2
CC1CC(=O)N(CCc2ccccc2)C(=O)C1	0	1.6	2	5	-3	2874	x
CC1CN(S(=O)(=O)c2cccc(C(=O)Nc3ccc(S(=O)(=O)NC4=NCCCCC4)cc3)c2)CC(C)O1 (stereo unspecified)	-4	-0.3	-6	3	-13	u	3

Results in Mtb hypoxia inh, ugtP null kill and RN4220 kill, for some of the entries so far:
mol | Mtb hypoxia inh | ugtP null kill | RN4220 kill
Cc1cc(C(=O)NC2CCCN(Cc3ccc(Cl)cc3)C2)no1 (stereo unspecified) | 8 | 3 | 2.5
O=C1CC(c2ccc3c(c2)OCO3)c2cc3c(cc2N1)OCCO3 (stereo unspecified) | x | -4 | 1.0
Cc1ccc(/C=C2/Sc3ccc(C(=O)NCCN4CCOCC4)cc3NC2=O)cc1 | 3 | -13 | 4.1

Carrying on:
structure	ugtP null kill	RN4220 kill	Mtb hypoxia inh	Mtb hypoxia inh growth	PrP UTR inh	Bead autofluor	BJeLR lethal
O=[N+]([O-])c1ccc(Cl)cc1Sc1ccccn1	1	6.8	7	3	-14	2030	3
O=C(Nc1cccc(S(=O)(=O)N2CCCCC2)c1)c1ccco1	-2	-0.3	-8	-3	-2	8464	x
CCOc1ccc(C(=O)N(C)C2CCS(=O)(=O)C2)cc1 (stereo unspecified)	-1	2.2	x	x	-16	3308	2
O=C(CC1SCCNC1=O)Nc1ccc(Cl)cc1 (stereo unspecified)	5	2.7	-3	-10	-25	4417	-3
O=C1c2ccccc2C(=O)C1C1=Nc2ccccc2NC(c2ccccc2)C1 (stereo unspecified)	2	-1.4	2	0	x	x	8
COc1ccc(Cc2nnc(SCC(=O)NCCc3ccccc3)o2)cc1	0	3.0	x	x	-11	21339*	5
CCN(CCn1cccn1)Cc1nc(-c2ccccc2)no1	4	9.3	7	14	-13	3075	-3
Cc1ccc(C)c(N2CCN(c3ccncc3N)CC2)c1	-2	3.9	-3	-9	0	2986	-5
CC1=C(C(=O)OC2CCCCC2)C(c2cccs2)n2c(nc3ccccc32)N1 (stereo unspecified)	x	x	x	x	-13	2387	-9
Cn1c(=O)c(C(=O)COC(=O)c2cc(-c3ccccc3)nc3ccccc23)c(N)n(Cc2ccccc2)c1=O	-1	-4.3	-11	6	x	x	6
Fc1ccccc1-c1ccc(C=NNc2nc3ccccc3[nH]2)o1	-22	-1.9	6	7	x	x	x
CC1CCN(C(=O)COC(=O)c2ccccc2C(=O)c2ccccc2)CC1	1	1.1	8	9	-20	3665	x
CCOC(=O)CSc1nc2ccccc2n2c(C)nnc12	-1	1.7	-4	-2	-13	4291	-8
CCc1cccc2c(C(=O)COC(=O)c3c(C)noc3C)c[nH]c12	-6	0.5	-3	5	-22	8161	-7
Cc1ccc(N2Cc3ccccc3C2=O)cc1	2	2.9	12	6	-6	4134	4
Cc1cc(C)cc(OCC(=O)OCC(=O)N2CC(=O)Nc3ccccc32)c1	2	-0.3	5	9	-24	3638	6
Cc1nc(SCC(=O)N(C)C2CCCCC2)[nH]c(=O)c1Cc1ccccc1	-5	17	15	8	-23	5238	0
COc1ccc(-n2c(C)cc(-c3csc(N)n3)c2C)cc1	-8	0.2	10	-3	19	1756	8
CNS(=O)(=O)c1cccc(C(=O)OCC(=O)Nc2ccc(-c3nc4ccc(C)cc4s3)cc2)c1	-8	5.4	14	2	-17	2590	-3
O=C(NC1CCCC1)C(c1ccc(F)cc1)N(C(=O)c1csnn1)c1ccccc1F (stereo unspecified)	-5	4.0	7	2	-29	3776	-5
COc1ccccc1Nc1nc(C)cc(C)n1	0	-2.0	2	0	-6	x	2
CCOc1ccc2nc(N3CCC(C(=O)N4CCN(C(=O)c5ccco5)CC4)CC3)sc2c1	-3	1.6	x	x	-9	4551	4
COC(=O)c1c(C(=O)OC)c(C)n(Cc2ccco2)c1C	10	3.1	x	x	-6	3624	2
Cc1nn(C)c(C)c1S(=O)(=O)N(CC(=O)NCc1cccs1)c1ccc(C(C)C)cc1	10	2.9	15	9	-24	5718	x
Nc1nc(COC(=O)CCC(=O)c2ccc(Cl)cc2)nc(Nc2ccccc2)n1	-6	-1.3	-5	-13	-2	4599	x
Cn1c(SCC(=O)NC(=O)CN2CCCC2=O)nnc1-c1ccc(F)cc1	1	6.0	5	7	-16	3964	0
COc1ccc(CCNC(=O)c2ccccc2N(C)S(=O)(=O)c2ccccc2)cc1	4	3.6	3	4	-12	1941	11
Cc1ccc(OCC(=O)Nc2ccc(NC(=O)c3ccccc3)cc2)cc1C	-1	-3.0	15	5	-1	3512	4
COC(=O)c1ccc(C2OCC(C)(C)CO2)cc1	-8	13	16	7	-41	7060	1
Cc1ccc2c(c1)COc1c3ccc(C(=O)NCC4CC4)cc3nn1-2	-16	8.0	11	15	-38	3899	-2
CCNc1ccccc(C(=O)/C=C/c2ccc3c(c2)OCO3)c1=O	1	14	-1	8	-20	2816	1
COc1ccc(CN2CCCC(CO)(Cc3cccc(Cl)c3)C2)cc1OC (stereo unspecified)	11	-0.5	0	-4	-7	4769	-5
COc1ccc(NC(=O)C2CC(=O)NC3=C2C(=O)CC(C)(C)C3)cc1 (stereo unspecified)	2	1.1	0	5	-10	23174*	-2
Cc1cc(Br)c(OCC(=O)NN)c2c1CCC2	8	9.9	6	0	-11	x	3
Cc1nc(N2CCC(C)CC2)c2c(C)c(C(=O)Nc3ccccc3C(F)(F)F)sc2n1	9	7.5	16	14	-20	2579	-14
CC(NC(=O)c1ccc(C(=O)c2ccccc2)cc1)c1ccc(S(N)(=O)=O)cc1 (stereo unspecified)	9	-1.3	5	-10	-8	6451	x
O=C(C=C(O)c1ccc(Cl)cc1)C(=O)NNC(=O)C(O)(c1ccccc1)c1ccccc1	95*	0.2	8	6	-20	4185	x
COc1ccc(NC(=O)N2c3ccc(OC)cc3C(C)=CC2(C)C)cc1	5	-2.7	0	0	-21	2080	-7
CC1(C)CC(=O)C(N=Nc2ccc(Cl)cc2)=C(O)C1	2	1.5	0	11	-10	2360	13
COc1ccc(CNC(=O)COC(=O)[C@H](Cc2ccccc2)NC(=O)c2cccs2)cc1	-1	1.7	6	5	-9	3613	x
